Screening data (PubChem)
Rce1 inhib: inhibitors of yeast Ras-converting enzyme. calls only. Q03530. 290,000 tested, 0.27% active. AID 2563. yeast membranes, quenched prenylated peptide cleavage fluorescence;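 active means fall in fluorescence gain of 50% or more versus controls, with final raw signal at or below 3038400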;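 further: plate controls were neutral control wells for no effect and wells lacking membranes for full effect; tested at 10 µM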
Target sequence (Q03530 whole entry, looked up): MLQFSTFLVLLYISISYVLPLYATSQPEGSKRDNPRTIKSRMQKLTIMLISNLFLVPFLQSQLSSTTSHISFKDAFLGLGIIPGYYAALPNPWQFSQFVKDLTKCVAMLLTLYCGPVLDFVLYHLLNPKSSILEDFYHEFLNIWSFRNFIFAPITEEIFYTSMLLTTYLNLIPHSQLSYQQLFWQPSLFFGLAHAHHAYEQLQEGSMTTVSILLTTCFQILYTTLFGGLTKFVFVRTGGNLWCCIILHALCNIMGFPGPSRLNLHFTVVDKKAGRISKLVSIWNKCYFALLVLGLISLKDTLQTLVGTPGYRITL
eIF4H FP inh: inhibitors of RNA binding by human eIF4H | eIF4H fluorescence polarization binding assay | AID 2012 | inhibition, % at 35 µM | Q15056 | 290,000 tested, 0.94% active;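 active means 50% or more with normal probe brightness, or confirmed in later tests; about a fifth of its hits are not listed in these tables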;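 further: calls also rest on retests at 20 µM and on dose response follow-up; 0% = protein and probe with vehicle and 100% = probe without protein; strong numbers were not always called active; many hits fall short of the cut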
HIV Env fusion: blocks HIV Env-driven cell-cell fusion; HeLa-JRFL Env/CEM21 cell fusion, luciferase; inhibition, % at 12.3 µM; 360,000 tested, 1.1% active; AID 651610;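 active means mean replicate inhibition score of at least 50 and every replicate individually at or above 50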;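 further: 0% = plate neutral controls and 100% = maraviroc near 300 nM; one replicate is shown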
Yeast UUG start: alters start codon recognition fidelity in yeast; S. cerevisiae UUG-firefly luciferase reporter, luminescence/redox ratio; activity score, % at 18.7 µM; 350,000 tested, 0.13% active;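 active means replicate mean at a twofold rise or more, about +100% in these data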;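 further: firefly luciferase made from a UUG start codon reports start codon fidelity; reporter light over untreated wells divided by growth signal over untreated wells; some hits fall short of that in this replicate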
MT1-MMP act inh: inhibitors of human MT1-MMP activation. P50281. HT1080 RFP-PRO-GFP cells, GFP/RFP ratio fluorescence, overnight; percent of plate control window, DMSO zero. GFP/RFP ratio change, % at 20 µM. 360,000 tested, 0.061% active;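 active means GFP/RFP ratio change of at least 30% with cell ATP level not reduced by more than half and red fluorescence within 50% of control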; further: strong numbers were not always called active
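Assay system: HT1080 cells carrying an RFP-PRO-GFP reporter | Dosing: Single dose of 20 µM compound, 1% DMSO final | Incubation: Cells overnight before dosing, compound overnight, 37 °C, 5% CO2 | Evaluation: GFP/RFP fluorescence ratio | Control set: DMSO and RFP-L50D-GFP cell wells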
CSC inhib: blocks cancer stem cells; cancer stem cell-like cells viability, luminescence; inhibition, % at 7.5 µM; 300,000 tested, 1.1% active;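 active means mean at 75% or more and at least half the replicates too; tested in HMLE shEcad cells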;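 further: 0% = median of negative and 100% = median of positive control wells; the first replicate is given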
PABP polyA inh: blocks human PABP binding to poly(A) RNA | fluorescence polarization | inhibition, % at 35 µM | 290,000 tested, 1% active;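 active means 50% or more with normal probe brightness, or confirmed in later tests; about a fifth of its hits are not listed in these tables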;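 further: calls also rest on retests at 20 µM and on dose response follow-up; controls were probe without protein and protein plus probe with vehicle; some compounds called inactive have numbers as strong as hits; many hits fall short of the cut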
eIF4H FP inh retest: further read-out of eIF4H FP inh, marked with its call; inhibition, %; compound at 20 µM; confirmation average;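 mean of two retest wells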
PABP polyA inh retest: also measured in PABP polyA inh; calls as there; inhibition, %; compound at 20 µM; confirmation repeats;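 mean of two retest wells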
MT1-MMP act inh RFP: further read-out of MT1-MMP act inh, marked with its call; RFP signal change, %; measured here: RFP expression control read;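 0 = vehicle wells; hits needed this value within 50% of zero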
An asterisk follows results filed as active; i = inactive; . = no result given.

SMILES	Rce1 inhib	eIF4H FP inh	HIV Env fusion	Yeast UUG start	MT1-MMP act inh	MT1-MMP act inh RFP	CSC inhib	PABP polyA inh	others
COc1ccc(-c2cc(C(=O)NCc3cccnc3)no2)cc1OC	i	-10	-16	-24	2	0	-3	-9
Cc1cccc(C(=O)N2CCN(S(=O)(=O)N3CCCCC3)CC2)c1	i	-5	1	-7	-4	1	-18	-4
CCCCNC(=O)c1ccccc1NC(=O)c1ccccc1N(C)S(C)(=O)=O	i	1	-42	.	1	3	-18	1
O=C(NCc1ccc2c(c1)OCO2)c1ccc(Br)s1	i	-2	3	7	1	-3	-9	3
Nc1nonc1-n1nnc(C(=O)N/N=C/c2ccco2)c1CSc1ccccc1	i	-2	1	-4	-1	-1	1	4
N#CCCN1CCN(S(=O)(=O)c2ccc3c(c2)CCC3)CC1	.	.	-4	-6	0	1	.	.
COc1ccc(C2C(C(=O)N3CCN(c4ccccn4)CC3)CCC(=O)N2c2ccc(OC)cc2)cc1 (configuration not stated)	i	-9	-13	.	-3	0	-17	-11
O=C(c1ccc(Br)cc1)N(C1=NCCCCS1)c1ccccc1	i	-5	.	-10	-3	-7	-13	-1
CCN(CC(=O)NCc1ccc(Cl)cc1)C(=O)CSc1ccc(F)cc1	i	.	20	.	1	-1	7	.
Cc1nn(-c2ccccc2)c(C)c1/C=N/NC(=O)CSc1nnc(-c2ccccc2)n1-c1ccc(Cl)cc1	.	-2	-67	.	-5	-9	24	3
O=C(Nc1nnc(S(=O)(=O)N2CCCCC2)s1)c1ccc(Cl)cc1	i	-2	3	-7	-6	-26	30	-2
Cc1cc(C)c(OCC(=O)NCC2CCCO2)c(C)c1 (configuration not stated)	i	3	-1	.	1	2	-3	-4
Cc1ccc(C(C(=O)NCc2ccco2)N(CCc2ccccc2)C(=O)Cn2nnc3ccccc32)o1 (configuration not stated)	.	-8	.	5	0	-1	.	4
CCn1c(SCCOc2ccc(Cl)cc2)nnc1-c1cccs1	i	-8	-40	-21	3	-1	.	-6
OC(c1ccccc1)(c1nc(-c2ccc(F)c(Cl)c2)cs1)C(F)(F)F (configuration not stated)	.	.	-4	-17	2	-2	.	.
COc1cc(C(CC(=O)N2CCCC2)c2c(OC)cc(OC)c3ccc(=O)oc23)cc(OC)c1OC (configuration not stated)	i	52*	-5	-18	-5	5	-3	28	eIF4H FP inh retest=52*;PABP polyA inh retest=42
CCOc1ccc2cc(C3CC(c4ccco4)=NN3S(=O)(=O)c3ccccc3)c(Cl)nc2c1 (configuration not stated)	i	-20	-1	.	-2	-5	5	9
CC(C)(C)NC(=O)C1Cc2ccccc2CN1C(=O)Nc1ccccc1Cl (configuration not stated)	i	2	.	-7	2	2	-3	0
CC(C)C(=O)OCc1cn(-c2ccc(Cl)c(Cl)c2)nn1	i	-10	19	.	6	7	1	-19
C[C@H]1CN[C@H](CCO)/C1=C\c1ccccc1	.	.	-6	-27	3	3	.	.
CCCCOc1ccc(CSc2n[nH]c(C)n2)cc1	i	0	-83	-13	-1	-6	-1	7
CN(C)C(=O)c1cc(C(=O)c2ccccc2C(F)(F)F)c[nH]1	i	6	8	.	10	-12	-9	-6
Cn1nnc(NC(=O)c2ccc(C(C)(C)C)cc2)n1	i	0	-77	-34	1	2	-9	2
O=C(N=C1SC2CS(=O)(=O)CC2N1Cc1ccccc1Cl)C1CC1 (configuration not stated)	i	-13	3	-15	-6	-2	-1	-6
COc1ccc(C(=O)N/N=C/C(=O)c2ccccc2)cc1	i	1	-70	-11	0	0	.	-5

Quoted at random: three entries already listed.
SMILES	Rce1 inhib	eIF4H FP inh	HIV Env fusion	Yeast UUG start	MT1-MMP act inh	MT1-MMP act inh RFP	CSC inhib	PABP polyA inh	others
CCN(CC(=O)NCc1ccc(Cl)cc1)C(=O)CSc1ccc(F)cc1	i	.	20	.	1	-1	7	.
Cc1cc(C)c(OCC(=O)NCC2CCCO2)c(C)c1 (configuration not stated)	i	3	-1	.	1	2	-3	-4
CCOc1ccc2cc(C3CC(c4ccco4)=NN3S(=O)(=O)c3ccccc3)c(Cl)nc2c1 (configuration not stated)	i	-20	-1	.	-2	-5	5	9

6 structures already listed, sorted by number of heavy atoms, descending.
SMILES	Rce1 inhib	eIF4H FP inh	HIV Env fusion	Yeast UUG start	MT1-MMP act inh	MT1-MMP act inh RFP	CSC inhib	PABP polyA inh	others
COc1cc(C(CC(=O)N2CCCC2)c2c(OC)cc(OC)c3ccc(=O)oc23)cc(OC)c1OC (configuration not stated)	i	52*	-5	-18	-5	5	-3	28	eIF4H FP inh retest=52*;PABP polyA inh retest=42
CCOc1ccc2cc(C3CC(c4ccco4)=NN3S(=O)(=O)c3ccccc3)c(Cl)nc2c1 (configuration not stated)	i	-20	-1	.	-2	-5	5	9
CCCCNC(=O)c1ccccc1NC(=O)c1ccccc1N(C)S(C)(=O)=O	i	1	-42	.	1	3	-18	1
CCN(CC(=O)NCc1ccc(Cl)cc1)C(=O)CSc1ccc(F)cc1	i	.	20	.	1	-1	7	.
O=C(Nc1nnc(S(=O)(=O)N2CCCCC2)s1)c1ccc(Cl)cc1	i	-2	3	-7	-6	-26	30	-2
O=C(c1ccc(Br)cc1)N(C1=NCCCCS1)c1ccccc1	i	-5	.	-10	-3	-7	-13	-1

Further compounds follow:
SMILES	Rce1 inhib	eIF4H FP inh	HIV Env fusion	Yeast UUG start	MT1-MMP act inh	MT1-MMP act inh RFP	CSC inhib	PABP polyA inh	others
CC(C)CC1Nc2ccc(C(=O)NCc3ccc4c(c3)OCO4)cc2NC1=O (configuration not stated)	i	-14	.	-4	3	0	3	12
N#Cc1ccc(Nc2nc(-c3ccccc3)c(C(=O)c3ccccc3)s2)cc1	.	.	-18	-17	2	-9	.	.
Cc1ccc2cc(C=O)c(N(C)C)nc2c1	i	1	3	.	-4	8	.	-8
COc1cccc(NC(=O)C2(C)CCN2C(=O)CC2CCCC2)c1 (configuration not stated)	.	.	-15	0	2	1	.	.
NS(=O)(=O)c1ccc(NC(=O)CN2CCCC2)cc1	i	2	-5	-15	1	3	-16	8
O=C(Nc1ccc(Oc2ccccc2)cc1)C1CCN(c2c3c(nc4ncnn24)CCC3)CC1	i	1	103*	-14	-7	-24	4	7
N#CCCC(CCC#N)(CCC#N)c1cc[n+](CCc2ccccn2)cc1	i	.	-1	-10	0	3	-18	.
CC(C)c1ccc(S(=O)(=O)NCc2ccc3c(c2)OCO3)cc1	i	-5	4	-27	-1	2	-5	-8
Nc1ccc(S(=O)(=O)N2CCOCCOCCOCCOCCOCC2)cc1	i	-8	5	-23	0	2	-8	1

These rows are one share of the data; count on the stated rates, not on these rows.
